High-throughput results: PubChem, National Center for Advancing Translational Sciences (NCATS)
NS1 inh: qHTS Assay for Inhibitors of Influenza NS1 Protein Function | Potency, µM (highest dose often 46.1 µM), for the others: at the top dose activity, positive = more growth | AID 2326, 2010 | S. cerevisiae slowed by influenza A NS1, growth recovery by OD600 | actives 0.4% (n = 270,000); further: actives are rising curves; nearly all actives have a fitted effect of over 50% in size
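Compounds were scored for reversing the slow growth caused by influenza A NS1 in S. cerevisiae, measured by optical density at 600 nm. Assay medium contained 2% galactose at pH 6.0; NS1-free yeast of the same strain were the positive control.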
LASV entry inh: qHTS for Inhibitors of binding or entry into cells for Lassa Virus; Potency, µM (highest dose often 37.9 µM), without a hit: at the highest dose activity change, negative = inhibition, actives largely listed as inhibitors; actives 1.2% (n = 300,000); Lassa virus pseudotype entry inhibition, cell reporter; control for the full effect not named in the record; active means well fitted inhibition curve with a large enough effect; inconclusive means small, poorly fitted or top-dose-only effect, or effect the other way; inactive means flat fitted curve, though single readings scatter; tested in HEK293 cells; further: on the % scale 0 is the no-effect control and ±100 the full control effect; nearly all actives have a fitted effect of over 50% in size; luciferase read-out
2A StopGo: High Throughput Screening for Foot and Mouth Disease Virus Antivirals; human cells with a luciferase reporter of 2A StopGo recoding; control for the full effect not named in the record; Potency, µM (titrated, usually from 57.9 µM), inactives show top-dose signal change, negative = less light; actives 1.2% (n = 410,000); AID 1159524, 2015; active = well fitted falling curve with a large enough effect; inconclusive = small, poorly fitted or top-dose-only effect; inactive = no such curve, though single readings can be large or run the other way; tested in HEK293T cells; further: on the % scale 0 is the no-effect control and ±100 the full control effect; nearly all actives have a fitted effect of over 45% in size; luciferase light after 4 h
MARV entry inh: qHTS for inhibitors of binding or entry into cells for Marburg Virus. Potency, µM (doses to about 37.8 µM), inactives show top-dose activity change, negative = inhibition, hits mostly inhibitors. actives 1.8% (n = 300,000). AID 540276, 2011. Marburg virus pseudotyped entry inhibition, cell reporter; control for the full effect not named in the record; about a third of the inactives were read at about 46 µM; active = well fitted inhibition curve with a large enough effect; inconclusive = small, poorly fitted or top-dose-only effect, or effect the other way; inactive = flat fitted curve, though single readings scatter; tested in HEK293 cells; about a fifth of its hits are not listed in these tables; further: on the % scale 0 is the no-effect control and ±100 the full control effect; luciferase read-out
SARS PLpro yeast: qHTS of Yeast-based Assay for SARS-CoV PLP; actives 0.19% (n = 330,000); Potency, µM (doses to about 32.9 µM), for inactives: at the top dose activity, positive = growth rescue; S. cerevisiae expressing SARS-CoV PLpro, growth rescue; control for the full effect not named in the record; further: 0% is about no effect; nearly all actives have a fitted effect of over 55% in size; growth read by luminescence after 48 h
Cruzain noTriton: qHTS Assay for Promiscuous and Specific Inhibitors of Cruzain (without detergent). Cruzipain (Trypanosoma cruzi), P25779. purified cruzain, Z-FR-AMC fluorescence, no detergent. Potency, µM, inactives show max response, negative = inhibition, most hits filed as inhibitors. actives 2.3% (n = 200,000); active means well fitted curve in the direction sought with a large enough effect; inconclusive means small, poorly fitted or top-dose-only effect, or another doubt; inactive means no such curve, though single readings can be large; an effect the other way counts as inactive or inconclusive;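 further: plate controls were enzyme without inhibitor for no effect and buffer without enzyme for full effect; nearly all actives have a fitted effect of over 40% in size; top concentration of the series not given in the record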
Target sequence (P25779 123-467 limits assumed): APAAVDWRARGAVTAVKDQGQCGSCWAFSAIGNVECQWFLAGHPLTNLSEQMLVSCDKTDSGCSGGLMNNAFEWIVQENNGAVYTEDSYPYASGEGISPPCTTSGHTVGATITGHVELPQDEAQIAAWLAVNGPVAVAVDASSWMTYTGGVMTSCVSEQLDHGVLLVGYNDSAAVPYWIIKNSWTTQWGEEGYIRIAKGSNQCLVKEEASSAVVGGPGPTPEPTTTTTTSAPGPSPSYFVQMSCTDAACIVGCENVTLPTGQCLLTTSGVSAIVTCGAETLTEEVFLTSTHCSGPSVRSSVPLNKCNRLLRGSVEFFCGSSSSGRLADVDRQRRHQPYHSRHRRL
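Detergent-free condition (0.00005% Triton X-100) in acetate buffer pH 5.5 with DTT. 1.5 nM enzyme and compound were pre-mixed 15 min, then 2 uM Z-FR-AMC substrate added; reaction progress from fluorescence change between first and third reads (60 s).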
Cruzain Triton: qHTS Assay for Promiscuous and Specific Inhibitors of Cruzain (with detergent); Potency, µM, for inactives: max response, negative = inhibition, hits mostly inhibitors; purified cruzain, Z-FR-AMC fluorescence, 0.01% Triton; AID 1478, 2009; actives 0.43% (n = 200,000); active means well fitted curve in the direction sought with a large enough effect; inconclusive means small, poorly fitted or top-dose-only effect, or another doubt; inactive means no such curve, though single readings can be large; an effect the other way counts as inactive or inconclusive;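 further: plate controls were neutral wells for no effect and buffer without enzyme for full effect; nearly all actives have a fitted effect of over 40% in size; top concentration of the series not given in the record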
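Cruzain (1.5 nM) preincubated 15 min at RT with compound in 100 mM sodium acetate pH 5.5, 5 mM DTT, 0.01% Triton X-100. Reaction started with 2 uM Z-FR-AMC; AMC fluorescence (ex 360/em 450 nm) change over 60 s gave rate.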
RE007 growth inh: qHTS Assay for Inhibitors of the HIV-1 protein Vpr; S. pombe RE007 Vpr strain, BacTiter-Glo ATP luminescence, 24 h; control for the full effect not named in the record; Potency, µM (doses to about 92.2 µM), for the others: top-dose activity change, negative = less growth; actives 0.21% (n = 360,000); active = well fitted falling curve with a large enough effect; inconclusive = small, poorly fitted or top-dose-only effect; inactive = no such curve, though single readings can be large or run the other way;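 further: on the % scale 0 is the no-effect control and ±100 the full control effect; nearly all actives have a fitted effect of over 50% in size; the assay follows cell death caused by Vpr and the record does not say whether a fall means rescue or toxicity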
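Fission yeast strain RE007, carrying one chromosomally integrated HIV-1 vpr copy, was seeded at OD 0.01 in PMG+AL medium with 23 nL pinned compound. After 24 h at 30 °C and 99% humidity, viability was read by BacTiter-Glo luminescence.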
Active calls of the source: *; u = inconclusive; x = no result given; & = joins results of further samples; [ ] = remark or other dose. Unless noted, the call rests on the fitted dose curve; in most records, active means well fitted rising curve with a large enough effect; inconclusive means small, poorly fitted or top-dose-only effect; inactive means no such curve, though single readings can be large or run the other way. Potency means the concentration at half of the fitted maximal effect.

SMILES	NS1 inh	LASV entry inh	2A StopGo	MARV entry inh	SARS PLpro yeast	Cruzain noTriton	Cruzain Triton	RE007 growth inh
Cc1cc(C(=O)NN=C(CCC(=O)O)c2cccs2)c(C)o1	x	-16.8%	-10.1%	-1.2%	3.6%	x	x	-7.3%
CCc1ccc(NS(=O)(=O)c2ccc(-c3cc(C)no3)cc2)cc1	x	0.2%[46.1 µM]	15.3%	x	x	-8.8%	-15.1%	x
CCN(CC(=O)Nc1ccc(C(=O)Nc2ccc(OC)cc2)cc1)Cc1nc2ccccc2c(=O)[nH]1	3.3%	x	-33.6%	x	0.2%	x	x	5.8%
Cc1cc(Cl)ccc1NC(=O)Cc1ccc(NC(=O)N2CCCCc3ccccc32)cc1	x	-16.3%[46.1 µM]	-18.8%	x	x	8.4%	-3.2%	x
C/C(CCc1ccc2c(c1)OCO2)=N\NC(=O)c1ccccc1	5.8%	u	-3.5%	u	0.3%	-3.3%	-3.1%	-2.5%
Cc1cccc(NS(=O)(=O)c2cccc(C(=O)NCC(c3ccco3)N3CCCCC3)c2)c1 (stereo not given)	x	u	-13.0%	u	x	x	x	-2.6%
COc1cccc(CNC(=O)Cc2ccc(S(=O)(=O)N3CCOCC3)s2)c1	x	-7.4%[46.1 µM]	6.4%	u	0.6%	x	x	8.7%
Cc1c(C(=O)Nc2ccncc2)oc2c1C(=O)CC(C)(C)C2	-31.8%	u	u	u	-8.3%	-3.6%	6.9%	-7.4%
CN(C)CC(CCCCC(CN(C)C)C(=O)c1ccccc1)C(=O)c1ccccc1 (stereo not given)	3.1%	x	u	x	0.2%	x	x	6.8%
Cc1ccccc1C(=O)NC(CC(C)C)C(=O)OCc1cc(=O)n2cc(Br)ccc2n1 (stereo not given)	-41.0%	27.6%	17.5%	u	-14.7%	15.8µM*	14.1µM*	3.0%
COc1cccc(-n2c(=O)c3c(C)c(C)sc3n(CC(=O)NCc3ccccc3)c2=O)c1	x	18.5%[46.1 µM]	-5.4%	-1.4%[46.1 µM]	x	2.8%	-1.6%	x
CCCCOc1ccc(C(=O)Nc2ccc3c(c2)N(C(C)=O)CCC3)cc1	x	5.6%[46.1 µM]	3.16µM*	x	x	-10.8%	-0.1%	x
Cc1ccc(N2CC(c3nc4ccccc4n3CCC3CCCCC3)CC2=O)cc1 (stereo not given)	x	u	-29.8%	-8.3%[46.1 µM]	x	0.3%	-3.9%	x
Cc1ccc(S(=O)(=O)NC2=NCN(Cc3cccnc3)CN2)cc1	-1.6%	-10.1%	2.5%	5.9%	2.4%	-4.1%	5.4%	2.8%
Cc1ccccc1Cn1cnc2c(oc3ccccc32)c1=O	x	-3.9%	45.1%&38.9%[activator]	7.3%&7.3%[46.1 µM]	1.3%	-3.8%	-7.6%	20.2%
CC(=O)Nc1ccc(NC(=O)Cc2ccc(-c3ccccc3)cc2)cc1	14.7%	x	-2.9%	x	4.0%	x	x	2.2%
Cc1ccc(C(=O)OC/C(O)=C(\C#N)c2nc3ccccc3[nH]2)cc1S(=O)(=O)N1CCOCC1	10µM*	2.0%	1.6%	u	-15.8%	13.2%	0.0%	-12.3%
Clc1ccccc1CSC1=NCCCN1	u	-8.9%	-15.0%	u	-2.2%	-18.0%	2.2%	-13.3%
CCC1CCCCN1C(=S)NC(=O)c1ccc(F)c(S(=O)(=O)N2CCOCC2)c1 (stereo not given)	-6.4%	x	-2.3%	x	-0.8%	x	x	11.4%
COc1ccc(NC(=O)CSc2nnc3ccc(-c4cccnc4)nn23)c(OC)c1	x	-1.4%	-13.4%	5.4%	22.4%	x	x	5.1%
CN1C(=O)C(C)(C)c2cc(S(=O)(=O)NCc3ccc(C(=O)Nc4ccc(Cl)cc4)cc3)ccc21	x	u	31.6µM*	x	x	-16.4%	-5.2%	x
COc1ccc(N(C(=O)c2ccc(Br)o2)C2C=CS(=O)(=O)C2)cc1 (stereo not given)	4.8%	14.6%	x	-23.7%	6.4%	6.4%	3.3%	3.4%
CC(=O)Nc1ccc(S(=O)(=O)Nc2ccc(N3CCOCC3)cc2)cc1	-5.4%	21.4%	-10.7%	9.5%	-1.2%	-1.6%	6.1%	2.2%
COc1ccccc1C(=O)NC(=S)/C=C1/N(C)c2ccccc2C1(C)C	12.3%	u	u	14.1µM*	-3.6%	25.1µM*	14.1µM*	3.3%
CCCC1OC(c2cc3c(cc2Cl)OCO3)OCC1CC (stereo not given)	x	-21.8%[46.1 µM]	-10.6%	-1.6%[46.1 µM]	x	x	x	-19.1%
Cc1nn(-c2ccccn2)c(N)c1N=O	-0.1%	17.0%[46.1 µM]	13.5%	-4.0%[46.1 µM]	0.3%	x	x	-27.1%
CCOC(=O)/C(C#N)=C/c1c(N2CCN(Cc3ccc4c(c3)OCO4)CC2)nc2c(C)cccn2c1=O	5.0%	u	-1.6%	u	1.5%	x	x	2.3%
N#CC1=C(SCC(=O)Nc2nccs2)NC(=O)CC1c1ccccc1 (stereo not given)	-7.4%	14.7%	-8.0%	8.3%	-4.6%	-6.1%	2.1%	7.0%
CCN(CC)c1ccc(NC(=O)CSc2nc3ccccc3c(=O)[nH]2)cc1	-12.2%	10.5%	1.4%	4.4%	-0.7%	u	1.7%	-3.0%
O=C(NCC(c1cccs1)N1CCOCC1)C1CCN(S(=O)(=O)c2cccc(C(F)(F)F)c2)CC1 (stereo not given)	x	-0.8%	-10.1%	7.2%	-0.3%	x	x	-7.5%
OCCC1CN(Cc2ccccc2-c2ccco2)CCN1Cc1ccccc1 (stereo not given)	3.1%	-26.0%[46.1 µM]	-16.6%	u	-0.3%	x	x	-22.9%
O=C1SC(SCc2ccccc2)=N/C1=C\c1ccco1	-3.6%	-4.3%	1.3%	15.6%	x	-4.5%	-7.0%	-4.4%
Cc1ccc(NCc2ccccc2O)c(C)c1	x	-8.5%	7.3%	u	-4.9%	x	x	-1.5%
CCOC(=O)CCN(c1ccccc1)S(=O)(=O)c1ccc(-c2ccc(=O)[nH]n2)s1	1.7%	-11.2%[46.1 µM]	-14.4%	u	7.0%	x	x	-1.1%
CCN(CC(=O)NCc1ccc(Cl)cc1)C(=O)c1oc2ccccc2c1C	13.7%	-18.3%[46.1 µM]	16.0%	u	-0.1%	x	x	5.0%
COc1ccc(CCNC(=O)c2cc(S(=O)(=O)N(C)c3ccccc3)ccc2Cl)cc1	-14.7%	u	u	u	-5.5%	-13.8%	-5.4%	-2.5%
COc1cc2c(C)nc(C)c(C#N)c2cc1OC	7.6%	-8.8%	-8.2%	7.9%	0.0%	u	-7.4%	4.7%
Cc1cccc(C(O)(C(=O)NNC(=O)CN2CCN(C)CC2)c2cccc(C)c2)c1	-2.6%	19.3%	-12.0%	u	4.3%	17.7%	-0.8%	-16.3%
CCCCc1ccc(NC(=O)Nc2cc(C)nn2C)cc1	0.8%	-2.0%	-1.2%	11.3%	-0.6%	x	x	3.8%
Cc1ccc(C)c(NC(=O)c2cc(S(=O)(=O)N3CCCCC3)c[nH]2)c1	4.7%	x	-28.6%	x	10.3%	x	x	1.4%
COc1ccc(Cl)cc1S(=O)(=O)N1CCCC(C(=O)NCc2ccccn2)C1 (stereo not given)	x	7.4%	1.0%	8.3%[46.1 µM]	0.7%	x	x	-14.3%
CCCC(=O)N(Cc1cc(=O)[nH]c2ccccc12)c1ccc(C)cc1	3.2%	-17.4%	-3.0%	u	0.3%	x	x	-1.9%
COc1ccc(C(=O)OCC(=O)Nc2cc(S(=O)(=O)N3CCOCC3)ccc2N2CCCC2)cc1	-1.7%	x	12.3%	5.5%[46.1 µM]	0.9%	x	x	-6.9%
Cc1nc(-c2cccc(C(F)(F)F)c2)sc1C(=O)O	-43.9%	-2.0%	49.7%[activator]	u	-0.1%	x	x	7.7%
CC(Sc1nnnn1-c1ccccc1)C(=O)Nc1ccc(N2CCN(C)CC2)cc1 (stereo not given)	-4.3%	25.3%[46.1 µM]	-21.1%	8.9%[46.1 µM]	4.7%	x	x	24.4%
Cc1ccc2nc(C3CCN(CC(=O)N4CCCCCC4)CC3)[nH]c2c1	-4.7%	-1.1%	-15.3%	-0.4%	-1.4%	3.6%	0.3%	-10.0%
CN(c1ccccc1)S(=O)(=O)c1ccc(C(=O)OCC(=O)NCc2ccco2)cc1	-6.2%	14.2%	-11.9%	u	2.9%	10.9%	-0.8%	-10.6%
CN(CCc1cnn(C)c1)C(=O)C1CCC(=O)N(CC2CCCCC2)C1 (stereo not given)	-3.3%	x	-11.9%	x	-4.1%	x	x	4.3%
Cc1ccccc1-n1nc(C(=O)O)c(C)c(C#N)c1=O	2.82µM*	0.7%	2.0%	0.1%[46.1 µM]	6.7%	2.2%	1.2%	37.9%
CCOc1ccc(C(C(=O)NCC2CCCO2)N(Cc2cccnc2)C(=O)c2snc(C(N)=O)c2N)cc1 (stereo not given)	-3.2%	-4.0%	-15.6%	-4.5%[46.1 µM]	-1.1%	x	x	-5.9%
CCOc1cc(N2CCOCC2)c(OCC)cc1NC(=O)C(NC(=O)c1ccco1)C(C)C (stereo not given)	5.2%	10.4%	-18.8%	u	-4.2%	u	1.7%	3.3%
Cc1ccc(NC(=O)CSc2nc3ccccc3c3nc(CCn4c(C)nc5ccccc54)nn23)cc1F	x	-12.2%[46.1 µM]	-26.5%	x	x	28.8%	0.3%	x
OC1(c2ccccc2F)CCN(Cc2nnc(-c3ccccc3)o2)CC1	-3.1%	-2.9%	4.0%	13.4%[46.1 µM]	2.3%	9.4%	1.1%	6.4%

The order is random (roughly 4.7% active in at least one column).
